RanGTP-Impb inh: inhibitors of RanGTP-importin-beta interaction, primary screen, biochemical, FRET, CFP-Ran, YFP-importin-beta, homogeneous; Ran GTPase (GTP-bound) - importin-beta complex; inhibition, % (no concentration beside the values); AID 2216, 2009; cell-free CFP-Ran/YFP-importin-beta FRET ratio; 300,000 compounds, 1.1% hits;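 active = most replicates above 15%; inconclusive = exactly half above 15%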;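 also: 0% = DMSO wells and 100% = Ran loaded with GDP instead of GTP; wells of about 40 µL received 100 nL stock; the first replicate is given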
HNF4A DNA FP: change in binding of human HNF4A to DNA, primary screen, biochemical, fluorescence polarization, FITC-DNA. Hepatocyte nuclear factor 4-alpha (Homo sapiens), P41235. 1 h. activity change, % at 10 µM. 360,000 compounds, 0.3% hits. AID 1224865, 2016; in the data active = activity change above about 30%, passing the limit was not always enough;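 also: controls were the assay level and a saturating level of protein; the project sought stronger binding though the title names inhibitors; some compounds called inactive have numbers as strong as hits; positive values seem to mean higher polarization but the record does not say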
Calb FLC: C. albicans growth inhibition with fluconazole, primary screen, CaCi-2 strain, Alamar Blue fluorescence. C. albicans CaCi-2 (fluconazole-resistant clinical isolate) + fluconazole, 48 h. 300,000 compounds, 0.57% hits. AID 1979, 2009. growth inhibition, % (test concentration not listed);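 active = most replicates above 75%; inconclusive = exactly half above 75%; inactive = most below 75%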;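 also: all wells also contain fluconazole at 8 µg/ml as a sub-toxic cotreatment; 0% = median of DMSO wells and 100% = median of geldanamycin control wells; wells of about 8 µL received 7.5 nL stock; the first replicate is given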
LANA-H2A inh: blockers of LANA interaction with H2A/H2B – biochemical, FP readout, HTS, primary screen; cell-free LANA-H2A/H2B peptide, fluorescence polarization; Protein LANA1 (Human herpesvirus 8 type P (isolate GK18)), Q9QR71; inhibition, % (no concentration beside the values); 320,000 compounds, 0.6% hits; in the data active = inhibition mostly above about 10%, no sharp cut-off; inactive = mostly below about 6.7%;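 also: stock transfer was 7.5 nL into about 10 µL; 0% = median of vehicle wells and 100% = median of positive control wells; one replicate is shown; the record names a cut of 25% in any replicate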
Target sequence (Q9QR71 whole entry, looked up): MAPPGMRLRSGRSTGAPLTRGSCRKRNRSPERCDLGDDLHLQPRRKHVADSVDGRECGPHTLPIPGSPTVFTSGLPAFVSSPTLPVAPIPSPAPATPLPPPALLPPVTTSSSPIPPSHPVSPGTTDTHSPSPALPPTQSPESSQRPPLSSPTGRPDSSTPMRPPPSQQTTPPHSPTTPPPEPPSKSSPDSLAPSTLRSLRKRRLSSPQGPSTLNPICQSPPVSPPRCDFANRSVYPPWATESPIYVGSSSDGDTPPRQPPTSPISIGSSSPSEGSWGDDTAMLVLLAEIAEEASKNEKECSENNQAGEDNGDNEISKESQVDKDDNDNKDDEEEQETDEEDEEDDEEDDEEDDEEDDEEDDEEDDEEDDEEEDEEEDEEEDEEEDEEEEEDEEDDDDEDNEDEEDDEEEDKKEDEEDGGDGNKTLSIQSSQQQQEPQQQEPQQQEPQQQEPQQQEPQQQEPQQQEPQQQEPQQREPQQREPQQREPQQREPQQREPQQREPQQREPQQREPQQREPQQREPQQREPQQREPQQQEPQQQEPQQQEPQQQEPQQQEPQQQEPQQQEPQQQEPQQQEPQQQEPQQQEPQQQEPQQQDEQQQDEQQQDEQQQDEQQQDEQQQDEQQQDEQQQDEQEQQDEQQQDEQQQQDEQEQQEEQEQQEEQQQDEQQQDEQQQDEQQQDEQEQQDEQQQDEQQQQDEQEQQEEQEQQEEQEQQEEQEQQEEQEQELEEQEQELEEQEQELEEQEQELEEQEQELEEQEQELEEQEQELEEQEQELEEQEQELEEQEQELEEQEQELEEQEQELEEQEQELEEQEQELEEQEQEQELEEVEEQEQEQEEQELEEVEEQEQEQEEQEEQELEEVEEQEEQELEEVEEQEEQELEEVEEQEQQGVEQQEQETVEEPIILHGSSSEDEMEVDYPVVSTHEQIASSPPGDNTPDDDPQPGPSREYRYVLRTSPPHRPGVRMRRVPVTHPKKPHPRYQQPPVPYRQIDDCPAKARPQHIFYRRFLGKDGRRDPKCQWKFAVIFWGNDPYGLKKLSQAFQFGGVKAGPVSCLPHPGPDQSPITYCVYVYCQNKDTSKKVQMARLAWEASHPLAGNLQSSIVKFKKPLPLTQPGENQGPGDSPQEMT
Beta2AR agonist: beta2AR agonists driving receptor internalization, primary screen, cell-based, FAP fluorogen, flow cytometry | Am2.2-beta2AR cells; reference of the scale not given here | response, % (concentration not given with the values) | 340,000 compounds, 0.43% hits | AID 504454, 2011;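 active = response above a set limit, near 3 SD of response in nonfluorescent compounds, cut at about 42% in these data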;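 also: stock transfer was 100 nL into about 11 µL; a reference agonist was the positive control; negative values mostly stem from fluorescent compounds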
Vif TR-FRET: inhibitors of Vif binding to APOBEC3G peptide, primary screen, biochemical, TR-FRET, GST-Vif 1-94, biotin-A3G peptide, dose response retest (AID 1117319). Virion infectivity factor (Human immunodeficiency virus type 1 group M subtype B (isolate …. TR-FRET GST-Vif / biotin-A3G peptide binding; higher % means a stronger effect; test concentration not given here; strong numbers were not always called active. one-dose inhibition, %; IC50 in µM for titrated hits. 260,000 compounds, 0.57% hits;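 active = above the screen mean plus three standard deviations and confirmed in dose response; inconclusive = results disagree or hit not tested in dose response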;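 also: Vif residues 1-94 fused to GST binding biotinylated APOBEC3G peptide 110-148; 0% = full assay without inhibitor and 100% = GST in place of GST-Vif; retest series ran down from 100 µM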
ALR H2O2 inh: inhibitors of human ALR sulfhydryl oxidase, primary screen, biochemical, H2O2 detection, HRP-luminol luminescence, single point | FAD-linked sulfhydryl oxidase ALR (Homo sapiens), P55789 | purified ALR, DTT oxidation | inhibition, % (no concentration beside the values) | 290,000 compounds, 3.8% hits;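 active = mean and each replicate at 75% or more; inconclusive = only one of the two met; inactive = neither met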;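 also: stock transfer was 7.5 nL into about 7.5 µL; 0% = neutral wells and 100% = wells with inactivated enzyme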
Numbers without * were called inactive; ? = inconclusive; nt = not tested or not shown.

structure,RanGTP-Impb inh,HNF4A DNA FP,Calb FLC,LANA-H2A inh,Beta2AR agonist,Vif TR-FRET,ALR H2O2 inh
C/C(=N/NC(=O)CN1CCN(Cc2ccccc2Cl)CC1)c1cccs1,6.0,1.1,-3,2.8,4,-4%,-4
N#Cc1nc(-c2cccs2)oc1NCc1ccccc1Cl,-0.5,-0.5,-3,7.0,0,2%,40
COc1cccc(-c2noc(-c3cccnc3)n2)c1,1.2,1.9,-6,-1.5,-3,0%,4
CCOC(=O)c1cc(NC(=O)Nc2ccc(OC)c(OC)c2)c(C)nc1C,-1.5,2.6,-13,-1.3,5,6%,-23
Oc1ccc(C(=S)N2CCN(c3cccc(Cl)c3)CC2)cc1,nt,0.3,-16,-2.0,-4,nt,9
CCN1CCN(c2nc(Nc3ccccc3F)nc(N)c2[N+](=O)[O-])CC1,3.8,1.9,20,-6.6,6,13%,-2
Cc1cc(NC(=O)CCCSc2nc(-c3ccco3)cc(C(F)(F)F)n2)no1,0.4,2.7,4,2.4,-3,-9%,-25
COCC(C)NCc1cc(Br)ccc1OC (stereo not given),2.3,-0.4,-6,-4.0,1,0%,0
Cc1cc(NC(=O)CSc2ccc3nnc(CCNC(=O)c4ccccc4)n3n2)no1,5.3,1.3,6,2.8,-7,3%,-5
C/C(CC(=O)NCc1ccccc1)=N\NC(N)=S,-2.4,0.2,23,-3.7,3,-10%,-1
Cc1cccc(/C=C/c2onc(C)c2S(=O)(=O)N2CCC(C(=O)N3CCC(C)CC3)CC2)c1,0.6,0.1,-11,-0.7,3,-3%,-3
COCC(=O)Nc1ccc(S(=O)(=O)NCCc2ccccc2)cc1,2.5,4.2,-40,2.5,5,27%,-3
Cc1cc(C)n2cc(CSc3nnnn3C)nc2n1,-1.7,-2.6,-9,7.5,-2,1%,-8
O=C(CSc1nnnn1C1CC1)Nc1cccc(S(=O)(=O)N2CCCC2)c1,nt,4.0,nt,2.9,-4,19%,-4
O=C(NC(=S)Nc1ccc2c(c1)OCCO2)c1cccc(Br)c1,-2.2,5.7,1,0.2,-8,nt,nt
CCOC(=O)C1CCN(C(=O)C(C)c2ccc([N+](=O)[O-])cc2)CC1 (stereo not given),-4.8,-2.0,-13,0.9,-4,nt,26
COC(=O)c1ccc(COC(=O)CNC(=O)c2ccc(-c3ccccc3)cc2)cc1,-0.6,0.3,-6,7.7,3,4%,-18
CCc1ccc(NC(=O)C2C3C=CC(C4CC34)C2C(=O)O)cc1 (stereo not given),0.1,1.3,8,0.7,7,nt,-1
Cc1ccc(O)c(NC(=O)c2cc(C)no2)c1,2.9,-3.9,1,-2.1,-1,3%,36
CC1CN(CCCCOc2cccc(Oc3ccccc3)c2)CC(C)O1 (stereo not given),-0.1,0.0,9,5.5,-4,9%,-175

New compounds follow
structure,RanGTP-Impb inh,HNF4A DNA FP,Calb FLC,LANA-H2A inh,Beta2AR agonist,Vif TR-FRET,ALR H2O2 inh
COc1ccc(N2C(=O)CC(NCC#N)C2=O)cc1 (stereo not given),-0.1,3.5,0,0.7,-11,nt,-3
COc1ccc(COCC(O)CN(Cc2ccccc2)C(C)C)cc1OC (stereo not given),-2.3,1.3,-7,-2.5,9,?,-4
COc1ccc(NC(=O)c2cccc3ccccc23)cc1,-1.5,-3.8,-5,6.1,0,12%,0
COc1cccc(CN2CCN(C(=S)NCc3ccc(Cl)cc3)CC2)c1,1.0,4.3,-2,2.3,-13,?,-11
Oc1cccc(C(O)CNCc2ccc(-c3ccccc3)cc2)c1 (stereo not given),-210,-3.6,8,5.4,28,15%,6
CCOc1ccc(C(C(=O)NC(C)(C)C)N(CCOC)C(=O)CCC(=O)Nc2nccs2)cc1 (stereo not given),-0.8,2.7,3,3.9,-5,-5%,-2
COc1ccc(OCCOc2ccc(S(=O)(=O)N3CCCC3)cc2[N+](=O)[O-])cc1,nt,3.1,nt,-1.2,7,nt,-10
Cc1ccc(-c2cc(-c3ccccc3)no2)c(O)c1,?,3.5,-34,7.4,8,nt,-7
Cc1ccc(C)c(NS(=O)(=O)c2ccc3[nH]c(=O)oc3c2)c1,-0.5,3.7,-2,0.4,5,-1%,26
Cc1ccc2nc(C)c(C(=O)NN=C3CCN(C)CC3)n2c1,1.3,-2.5,-4,-5.3,-7,14%,nt
C=C1[C@H](C)CN(S(=O)(=O)C(C)(C)C)[C@H]1CCO,nt,1.6,nt,nt,1,-5%,nt
CC(C)[C@H](NC(=O)c1ccccc1)C(=O)OCC(=O)c1ccc(S(=O)(=O)N2CCCCC2)cc1,0.2,-1.4,-7,0.6,-1,nt,-5
CCn1c(SCC(=O)Nc2ccc(S(N)(=O)=O)cc2)nnc1-c1cccc(OC)c1,6.7,2.4,-12,-2.3,3,-4%,-3
O=[N+]([O-])c1ccc(O)c(C=Nc2ccc3nc(-c4ccccc4)[nH]c3c2)c1,0.8,-1.4,-1,-2.0,0,-4%,-15
COc1ccc(NC(=O)Nc2ccc3nccnc3c2)cc1,2.2,0.6,-33,2.5,6,0%,100*
COC(=O)c1ccc(C(C(=O)NC2CCCCC2)N(CCc2ccccc2)C(=O)Cc2cccs2)cc1 (stereo not given),-0.8,0.5,-17,4.1,0,0%,-21
Cc1ccc(NS(=O)(=O)c2cccc(C(=O)n3ncc(C#N)c3N)c2)c(C)c1,-7.2,5.6,6,3.0,6,5%,8
C=CCOc1ccc(CNc2ccc3[nH]c(=O)[nH]c3c2)cc1,5.5,4.3,27,-7.2,-1,nt,99*
Cc1ccc(S(=O)(=O)c2ccc(Oc3cccc(C)c3)cc2)cc1,1.3,-1.9,4,1.9,18,8%,-3
O=C(CCC1CCCCC1)NCc1ccc(F)cc1,4.6,-5.5,-4,5.0,-4,-1%,-3

3 compounds from above, sorted by SMILES length, highest first.
structure,RanGTP-Impb inh,HNF4A DNA FP,Calb FLC,LANA-H2A inh,Beta2AR agonist,Vif TR-FRET,ALR H2O2 inh
COc1cccc(CN2CCN(C(=S)NCc3ccc(Cl)cc3)CC2)c1,1.0,4.3,-2,2.3,-13,?,-11
Oc1cccc(C(O)CNCc2ccc(-c3ccccc3)cc2)c1 (stereo not given),-210,-3.6,8,5.4,28,15%,6
Cc1ccc(-c2cc(-c3ccccc3)no2)c(O)c1,?,3.5,-34,7.4,8,nt,-7

Later entries
structure,RanGTP-Impb inh,HNF4A DNA FP,Calb FLC,LANA-H2A inh,Beta2AR agonist,Vif TR-FRET,ALR H2O2 inh
CC(=O)Nc1ccc(C(=O)N(C)C(C(=O)Nc2ccc(C)cc2)c2ccccn2)cc1 (stereo not given),1.9,-2.1,1,-1.6,-10,5%,-5
CC(=O)C(c1ccccc1)C(c1ccccc1)C(C)[N+](=O)[O-] (stereo not given),0.2,-1.5,-7,3.7,6,nt,-7
Cc1noc(C)c1COc1ccc(C(=O)OCC(=O)Nc2ccc(C(=O)N(C)C)cc2)cc1,0.8,-1.4,1,-0.8,1,7%,-1
Cc1cc2cc(C=O)c(Cl)nc2cc1C,-4.9,3.0,-1,3.6,48*,75%,22
CCN1CCN(C(=O)c2ccc(OCC(=O)Nc3ccc(F)cc3)c(OC)c2)CC1,0.6,0.7,-4,7.2,0,nt,-21
CCc1ccc(N(C(=O)c2csnn2)C(C(=O)NC(C)(C)C)c2ccccn2)cc1 (stereo not given),0.3,1.2,11,-3.3,12,1%,-34
N#Cc1ccc(-c2cccnc2)nc1SCC(=O)c1ccccc1,-17,46*,-5,-3.9,-79,-6%,nt
CC1CN(C(=O)COC(=O)c2ccc(Cl)c(N)c2)CC(C)O1 (stereo not given),-4.0,0.4,-15,0.2,-5,nt,0
Cn1cc(S(=O)(=O)NCc2ccco2)c(=O)n(C)c1=O,6.2,4.6,1,7.8,7,1%,-4
COCCN1Cc2cccc(C(=O)Nc3ccc(S(=O)(=O)N4CCOCC4)cc3)c2C1=O,nt,-2.8,-24,0.9,26,nt,-1
COc1ccc(/C=C/C(=O)c2ccc(O)cc2)cc1COc1ccc(F)cc1,-0.5,-1.5,19,0.9,11,-1%,2
O=C(NCCN1C(=O)C2C3C=CC(C3)C2C1=O)N1CCOCC1 (stereo not given),2.4,1.1,9,-7.5,-13,-2%,-3
CC(C)Cn1c(N)c(C(=O)COC(=O)C2CC(=O)N(c3ccc4c(c3)OCCO4)C2)c(=O)n(C)c1=O (stereo not given),-2.6,-1.9,6,4.8,3,-2%,-4
CC1Cc2ccccc2N1C(=O)c1ccc(N2CCCC2)c([N+](=O)[O-])c1 (stereo not given),2.7,6.0,6,1.1,-7,2%,-7
Cc1nnc(SCc2nnc(-c3ccccc3)o2)n(N)c1=O,-4.4,-2.9,-2,2.1,-1,-2%,0
Fc1cccc(F)c1/C=N/Nc1ccccn1,5.2,0.3,-1,0.7,-11,-1%,-3
Cc1ccc(NC(=O)CSc2nnc([C@H](C)NC(=O)OC(C)(C)C)o2)c(C)c1,4.9,1.4,-8,-5.5,2,87%,-7
CCN(CC)c1ccc(NC(=O)COc2ccccc2C)cc1S(=O)(=O)Nc1ccccc1OC,-5.2,-2.7,-2,5.1,2,-6%,1
Cc1cc(OC(C)C(=O)NCc2cccnc2)c2c(C)c(C)c(=O)oc2c1 (stereo not given),-3.1,0.9,-3,0.9,-5,nt,-3

Marked active in ALR H2O2 inh (from the list above):
SMILES,RanGTP-Impb inh,LANA-H2A inh,Beta2AR agonist,Vif TR-FRET,ALR H2O2 inh
COc1ccc(NC(=O)Nc2ccc3nccnc3c2)cc1,2.2,2.5,6,0%,100*
C=CCOc1ccc(CNc2ccc3[nH]c(=O)[nH]c3c2)cc1,5.5,-7.2,-1,nt,99*

Source: PubChem
